# MLL AF4-AF9 inh: inhibitors of AF4 peptide binding to AF9, primary screen, biochemical, AlphaScreen, biotin-AF4 peptide, FLAG-AF9, single point | Protein AF-9 (Homo sapiens), P42568 | hit rate 0.47% among 350,000 | AID 651704, 2012 | inhibition, % at 10 µM;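 active means every replicate reaching a set inhibition limit, whatever the replicate mean, cut at about 25% in these data; inconclusive means mean inhibition reaches that limit but some replicates miss it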;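 further: 0% = plate neutral control median and 100% = total signal loss; the record names both 10 and 1 µM as test concentration; the first replicate is given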
# A1 inh: caspase 3/7 activation in MEF A1-2A-BIM cells, primary screen, A1 inhibitor project, cell-based, luminescence, HTS. Caspase-Glo 3/7 luminescence, 3 h; percent of clofoctol response, vehicle zero. caspase activation, % (test concentration not listed). hit rate 0.066% among 330,000. AID 2462, 2010;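 active means over half of replicate activation scores above 10%, or exactly half above 10 with the replicate mean above 10; inconclusive means replicate mean below 10 yet half the replicates above 10; inactive means over half of replicates below 10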;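 further: wells of about 30 µL received 50 nL stock; many hits fall short of the cut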
# Vif TR-FRET: inhibitors of Vif binding to APOBEC3G peptide, primary screen, biochemical, TR-FRET, GST-Vif 1-94, biotin-A3G peptide, dose response retest (AID 1117319); Virion infectivity factor (Human immunodeficiency virus type 1 group M subtype B (isolate …; hit rate 0.57% among 260,000; TR-FRET GST-Vif / biotin-A3G peptide binding; higher % means a stronger effect; test concentration not given here; strong numbers were not always called active; one-dose inhibition, %; IC50 in µM for titrated hits;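 active means above the screen mean plus three standard deviations and confirmed in dose response; inconclusive means results disagree or hit not tested in dose response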;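 further: Vif residues 1-94 fused to GST binding biotinylated APOBEC3G peptide 110-148; 0% = full assay without inhibitor and 100% = GST in place of GST-Vif; retest series ran down from 100 µM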
# T cruzi inh: inhibitors of intracellular T. cruzi growth, primary screen, luminescence, NIH3T3 host cells; T. cruzi beta-gal in NIH3T3, 90 h; inhibition, % (concentration not given with the values); hit rate 1.4% among 300,000;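 active means mean inhibition across valid replicates above about 55%, limit read from the data; inconclusive means mean below that limit but half or more replicates reach it; inactive means mean below it, under half of replicates reach it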;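 further: signal also drops with host cell toxicity which is not excluded here; 0% = plate median of DMSO wells and 100% = zero luminescence signal; higher percent means less beta-gal luminescence so fewer parasites; stock transfer was 50 nL into about 50 µL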
# Calb FLC: C. albicans growth inhibition with fluconazole, primary screen, CaCi-2 strain, Alamar Blue fluorescence. C. albicans CaCi-2 (fluconazole-resistant clinical isolate) + fluconazole, 48 h. growth inhibition, % (concentration not given with the values). AID 1979, 2009. hit rate 0.57% among 300,000;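 active means most replicates above 75%; inconclusive means exactly half above 75%; inactive means most below 75%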;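 further: all wells also contain fluconazole at 8 µg/ml as a sub-toxic cotreatment; 0% = median of DMSO wells and 100% = median of geldanamycin control wells; wells of about 8 µL received 7.5 nL stock; the first replicate is given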
# Beta apoptosis: inhibitors of cytokine-induced beta cell apoptosis, primary screen, luminescence; INS-1E cytokine-induced death, ATP luminescence, 48 h; percent of positive-control rescue, neutral wells zero; protection from apoptosis, % (no concentration beside the values); hit rate 0.8% among 300,000; AID 435005, 2010;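 active means all replicates at 75% or more, or half of them and the mean; inconclusive means half reach 75% but not the mean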;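 further: 0% = cytokine-treated negative control wells and 100% = positive control rescue; higher means more ATP so stronger rescue from cytokine killing; wells of about 40 µL received 100 nL stock; the first replicate is given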
# LANA-H2B inh: blockers of LANA interaction with H2A/H2B – biochemical, FP readout, HTS, primary screen | AID 2629, 2010 | Protein LANA1 (Human herpesvirus 8 type P (isolate GK18)), Q9QR71 | cell-free LANA-H2A/H2B peptide, fluorescence polarization | inhibition, % (test concentration not listed) | hit rate 0.6% among 320,000; in the data active means inhibition mostly above about 10%, no sharp cut-off; inactive means mostly below about 6.7%;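 further: stock transfer was 7.5 nL into about 10 µL; 0% = median of vehicle wells and 100% = median of positive control wells; one replicate is shown; the record names a cut of 25% in any replicate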
# Target sequence (Q9QR71 whole entry, looked up): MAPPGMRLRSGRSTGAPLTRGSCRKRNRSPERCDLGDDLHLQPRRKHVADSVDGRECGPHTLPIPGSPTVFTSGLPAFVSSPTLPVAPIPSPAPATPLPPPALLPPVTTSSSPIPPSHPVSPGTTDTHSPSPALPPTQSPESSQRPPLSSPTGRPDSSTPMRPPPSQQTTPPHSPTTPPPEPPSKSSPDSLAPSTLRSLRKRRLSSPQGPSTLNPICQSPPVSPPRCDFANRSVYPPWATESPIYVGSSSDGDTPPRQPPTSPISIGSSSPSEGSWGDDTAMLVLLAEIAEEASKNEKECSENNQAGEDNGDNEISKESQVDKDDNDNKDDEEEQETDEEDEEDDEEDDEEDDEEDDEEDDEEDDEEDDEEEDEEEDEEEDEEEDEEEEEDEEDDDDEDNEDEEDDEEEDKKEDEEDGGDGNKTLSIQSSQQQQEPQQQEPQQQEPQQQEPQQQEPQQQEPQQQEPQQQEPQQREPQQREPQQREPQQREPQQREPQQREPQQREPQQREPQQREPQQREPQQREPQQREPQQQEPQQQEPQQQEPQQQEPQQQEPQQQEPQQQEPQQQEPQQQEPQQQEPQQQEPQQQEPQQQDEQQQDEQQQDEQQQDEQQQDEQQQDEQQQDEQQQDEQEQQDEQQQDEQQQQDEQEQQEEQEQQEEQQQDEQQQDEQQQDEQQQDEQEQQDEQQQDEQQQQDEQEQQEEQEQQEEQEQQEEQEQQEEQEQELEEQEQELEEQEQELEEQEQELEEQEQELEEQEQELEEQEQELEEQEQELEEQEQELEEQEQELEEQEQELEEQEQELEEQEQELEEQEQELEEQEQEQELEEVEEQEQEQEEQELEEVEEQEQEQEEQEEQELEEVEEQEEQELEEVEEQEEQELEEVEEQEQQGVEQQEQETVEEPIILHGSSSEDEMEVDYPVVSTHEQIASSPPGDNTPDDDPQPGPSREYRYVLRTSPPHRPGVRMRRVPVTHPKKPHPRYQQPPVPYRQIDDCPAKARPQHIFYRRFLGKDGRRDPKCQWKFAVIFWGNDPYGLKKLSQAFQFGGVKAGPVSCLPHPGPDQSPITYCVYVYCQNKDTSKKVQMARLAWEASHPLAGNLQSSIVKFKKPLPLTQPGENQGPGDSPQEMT
# RanGTP-Impb inh: inhibitors of RanGTP-importin-beta interaction, primary screen, biochemical, FRET, CFP-Ran, YFP-importin-beta, homogeneous; cell-free CFP-Ran/YFP-importin-beta FRET ratio; AID 2216, 2009; hit rate 1.1% among 300,000; Ran GTPase (GTP-bound) - importin-beta complex; inhibition, % (concentration not given with the values);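 active means most replicates above 15%; inconclusive means exactly half above 15%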;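 further: 0% = DMSO wells and 100% = Ran loaded with GDP instead of GTP; wells of about 40 µL received 100 nL stock; the first replicate is given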
# Numbers without * were called inactive; ? = inconclusive; · = no result given. Rows were taken by chance, and some 4.3% of all compounds hit somewhere here.
SMILES,MLL AF4-AF9 inh,A1 inh,Vif TR-FRET,T cruzi inh,Calb FLC,Beta apoptosis,LANA-H2B inh,RanGTP-Impb inh
CC(C)(C)[C@H]1COC(=O)[C@@H](Cc2ccc(F)cc2)CC/C=C/C[C@@H](CC(=O)N[C@@H](CO)Cc2ccccc2)C(=O)N1,0.9,-0.3,·,·,·,0,-2.2,·
COc1ccc(CNC(=O)C2(CC3CC(c4ccccc4)=NO3)CCN(C(=O)C3(C)CC3)CC2)cc1 (stereo not drawn),·,-0.3,·,-1,-7,-3,-0.8,-1.2
O=C(c1ccco1)N1CCN(S(=O)(=O)c2ccc(Br)cc2)CC1,-0.8,-0.1,-2%,2,-2,·,-3.3,-4.5
COC(=O)C1CC(O)CN1C(=O)NC1CCCCC1 (stereo not drawn),-3.8,0.5,19%,-4,?,-6,6.2,-0.3
COCCCNC(=O)c1oc2ccc(S(=O)(=O)N(C)C3CCCCC3)cc2c1C,·,0.1,15%,10,-6,4,4.4,2.7
COc1ccc(CCNC(=O)COC(=O)/C=C/c2cccs2)cc1,-0.5,-0.5,9%,-2,-26,-2,-4.0,1.1
CCn1cc(Br)c(C(=O)Nc2cccc(SC)c2)n1,·,-3.1,64%,15,0,-2,1.9,4.3
CCCCc1nc(SCC(=O)Nc2cccc(Cl)c2)n[nH]1,0.0,0.5,8%,-9,-3,·,0.0,?
CN1CC(=O)N(C)c2nc(Br)n(C)c2C1=O,-2.3,0.0,7%,-12,-1,-5,4.4,3.2
COc1ccc(NC(=O)c2csc(C)c2)cc1OC,1.5,0.0,-1%,16,7,2,-2.9,-6.3

# Exported bar-delimited: part of the list above.
SMILES | MLL AF4-AF9 inh | A1 inh | Vif TR-FRET | T cruzi inh | Calb FLC | Beta apoptosis | LANA-H2B inh | RanGTP-Impb inh
COc1ccc(CNC(=O)C2(CC3CC(c4ccccc4)=NO3)CCN(C(=O)C3(C)CC3)CC2)cc1 (stereo not drawn) | · | -0.3 | · | -1 | -7 | -3 | -0.8 | -1.2
O=C(c1ccco1)N1CCN(S(=O)(=O)c2ccc(Br)cc2)CC1 | -0.8 | -0.1 | -2% | 2 | -2 | · | -3.3 | -4.5

# Later entries
SMILES,MLL AF4-AF9 inh,A1 inh,Vif TR-FRET,T cruzi inh,Calb FLC,Beta apoptosis,LANA-H2B inh,RanGTP-Impb inh
CC(C)OCCCN(C)C1CCN(S(=O)(=O)c2ccc(-c3cc(C(F)(F)F)no3)s2)CC1,0.9,-1.0,·,39,15,10,1.5,1.4
COc1ccc(CN=C2NN=C(c3ccccc3)CS2)cc1,2.6,0.0,4%,9,-9,-14,-0.3,4.5
O=C(NC(C(=O)N/N=C/c1c2ccccc2cc2ccccc12)c1n[nH]c(=O)c2ccccc12)c1ccccc1 (stereo not drawn),·,-0.4,2%,17,-2,8,-0.3,97*
Cn1nc(C(F)(F)F)c(-c2ccccc2)c1NC(=O)CSCC(=O)O,-0.8,0.3,·,2,-4,·,-0.9,0.0
COc1ccc(-c2nc(N3CCCC3)[nH]c(=O)c2C#N)cc1,·,0.2,10%,-4,-2,-9,-18,-0.3
CCc1ccccc1NC(=O)NNC(=O)CCc1ccccc1,1.2,0.0,·,11,1,1,1.3,1.4
O=C(COc1cccnc1[N+](=O)[O-])Nc1cccc(S(=O)(=O)N2CCCCC2)c1,-1.6,-2.7,·,15,16,-6,2.5,3.6
COC(=O)C1CCN(c2ccc([N+](=O)[O-])cc2[N+](=O)[O-])CC1,7.3,0.6,·,5,-1,-4,-3.0,?
Cc1onc(-c2ccccc2Cl)c1C(=O)N1CCC(C)CC1,-0.2,0.2,1%,3,-1,-1,1.3,-0.8
Cc1ccc(NC(=O)CSC2=NCCN2)cc1,·,-0.8,·,-9,-1,-3,1.1,2.4

# Copied from the results shown (17 entries):
SMILES,MLL AF4-AF9 inh,A1 inh,Vif TR-FRET,T cruzi inh,Calb FLC,Beta apoptosis,LANA-H2B inh,RanGTP-Impb inh
COC(=O)C1CC(O)CN1C(=O)NC1CCCCC1 (stereo not drawn),-3.8,0.5,19%,-4,?,-6,6.2,-0.3
COCCCNC(=O)c1oc2ccc(S(=O)(=O)N(C)C3CCCCC3)cc2c1C,·,0.1,15%,10,-6,4,4.4,2.7
COc1ccc(CCNC(=O)COC(=O)/C=C/c2cccs2)cc1,-0.5,-0.5,9%,-2,-26,-2,-4.0,1.1
CCn1cc(Br)c(C(=O)Nc2cccc(SC)c2)n1,·,-3.1,64%,15,0,-2,1.9,4.3
CCCCc1nc(SCC(=O)Nc2cccc(Cl)c2)n[nH]1,0.0,0.5,8%,-9,-3,·,0.0,?
CN1CC(=O)N(C)c2nc(Br)n(C)c2C1=O,-2.3,0.0,7%,-12,-1,-5,4.4,3.2
COc1ccc(NC(=O)c2csc(C)c2)cc1OC,1.5,0.0,-1%,16,7,2,-2.9,-6.3
CC(C)OCCCN(C)C1CCN(S(=O)(=O)c2ccc(-c3cc(C(F)(F)F)no3)s2)CC1,0.9,-1.0,·,39,15,10,1.5,1.4
COc1ccc(CN=C2NN=C(c3ccccc3)CS2)cc1,2.6,0.0,4%,9,-9,-14,-0.3,4.5
O=C(NC(C(=O)N/N=C/c1c2ccccc2cc2ccccc12)c1n[nH]c(=O)c2ccccc12)c1ccccc1 (stereo not drawn),·,-0.4,2%,17,-2,8,-0.3,97*
Cn1nc(C(F)(F)F)c(-c2ccccc2)c1NC(=O)CSCC(=O)O,-0.8,0.3,·,2,-4,·,-0.9,0.0
COc1ccc(-c2nc(N3CCCC3)[nH]c(=O)c2C#N)cc1,·,0.2,10%,-4,-2,-9,-18,-0.3
CCc1ccccc1NC(=O)NNC(=O)CCc1ccccc1,1.2,0.0,·,11,1,1,1.3,1.4
O=C(COc1cccnc1[N+](=O)[O-])Nc1cccc(S(=O)(=O)N2CCCCC2)c1,-1.6,-2.7,·,15,16,-6,2.5,3.6
COC(=O)C1CCN(c2ccc([N+](=O)[O-])cc2[N+](=O)[O-])CC1,7.3,0.6,·,5,-1,-4,-3.0,?
Cc1onc(-c2ccccc2Cl)c1C(=O)N1CCC(C)CC1,-0.2,0.2,1%,3,-1,-1,1.3,-0.8
Cc1ccc(NC(=O)CSC2=NCCN2)cc1,·,-0.8,·,-9,-1,-3,1.1,2.4

# Later entries.
SMILES,MLL AF4-AF9 inh,A1 inh,Vif TR-FRET,T cruzi inh,Calb FLC,Beta apoptosis,LANA-H2B inh,RanGTP-Impb inh
O=C(CCc1ccccc1)Nc1ccc(F)c([N+](=O)[O-])c1,4.6,0.0,6%,6,-10,-4,0.4,1.5
CCOC(=O)c1c(NC(=O)COC(=O)c2ccc([N+](=O)[O-])cc2)sc(C(=O)N(C)C)c1C,0.2,1.0,3%,-10,8,-1,-0.8,-3.8
COc1cc(-c2nc(-c3cccnc3)no2)cc(OC)c1OC,·,-0.1,-6%,-5,-3,3,3.7,-3.6
c1ccc(-c2ccccc2OCCCCn2ccnc2)cc1,9.5,-0.7,-7%,24,-38,9,-2.1,2.2
O=C(COC(=O)Cn1nnc(-c2ccccc2)n1)Nc1ccccc1Br,3.4,1.3,0%,·,·,-3,4.7,·
C=CCn1c(O)c(N=NC(=O)CNC(=O)Cc2ccccc2)c2ccccc21,-2.9,-2.5,·,1,-1,-4,-6.1,-2.2
COc1ccc(Oc2coc3cc(OC(=O)c4cccs4)ccc3c2=O)cc1,·,-0.3,24%,-9,-20,3,0.5,0.5
CC(=O)NN1C(=O)c2ccccc2NC1c1ccc(N(C)C)cc1 (stereo not drawn),-0.4,-1.2,-1%,-3,-9,-5,-1.1,5.1
Cc1ccc2nc(-c3ccc(NC(=O)CNC4CC4)cc3)sc2c1,1.1,·,?,24,-45,·,·,3.0
CCOC(=O)Cc1csc(NS(C)(=O)=O)n1,-15,0.8,?,-27,-27,4,-5.2,0.1
COc1ccc(CCNC(=O)CCC(=O)N2CCOc3ccc(C)cc32)cc1OC,-4.2,-0.7,·,2,8,0,-1.0,3.3
O=C(NCCO)C(=O)NCC1OCCCN1S(=O)(=O)c1cccs1 (stereo not drawn),·,-0.4,5%,-11,-7,-3,-4.7,-4.6

# Compound activity: PubChem, several laboratories
